Screening results as filed in PubChem BioAssay.
Sfp PPTase inh: blocks B. subtilis Sfp PPTase activity. Q9F4F7. Biochemical Sfp PPTase activity, qHTS. Potency, µM, for inactives: max response, negative = inhibition, actives largely listed as inhibitors. 3.5% of 310,000 active. AID 1490; active means well fitted inhibition curve with a large enough effect; inconclusive means small, poorly fitted or top-dose-only effect, or another doubt; inactive means no such curve, though single readings can be large or run the other way;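 further: the enzyme is Sfp with the accession as filed and its product quenches rhodamine fluorescence; potency means the concentration at half of the fitted maximal effect; 0% = enzyme reaction without inhibitor and -100% = no enzyme wells; top concentration of the series not given in the record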
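Reaction rates are the 30-min fluorescence difference (ex 525, em 598 nm) in wells containing 15 nM Sfp, 5 uM rhodamine-CoA and 12.5 uM BHQ-2-YbbR at pH 7.6 with 10 mM MgCl2.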
ClpP mod: qHTS Assay for Activators of ClpP; ATP-dependent Clp protease proteolytic subunit (Bacillus subtilis (strain 168)), P80244; purified B. subtilis ClpP, FRET peptide cleavage, 20 min; Potency, µM (doses to about 57.5 µM), inactives show top-dose activity change, negative = active; 1.9% of 340,000 active; active = well fitted falling curve with a large enough effect; inconclusive = small, poorly fitted or top-dose-only effect; inactive = no such curve, though single readings can be large or run the other way; further: potency means the concentration at half of the fitted maximal effect; the source files actives as falling curves though it sought activators and does not explain the sign; nearly all actives have a fitted effect of over 65% in size; many hits overshoot -100%
Target sequence (P80244 whole entry, looked up): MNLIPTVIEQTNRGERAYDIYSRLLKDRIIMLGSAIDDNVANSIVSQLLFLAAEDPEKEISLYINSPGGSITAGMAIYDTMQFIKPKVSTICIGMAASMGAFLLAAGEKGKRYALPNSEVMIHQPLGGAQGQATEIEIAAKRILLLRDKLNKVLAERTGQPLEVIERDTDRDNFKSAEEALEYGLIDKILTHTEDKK
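Purified B. subtilis ClpP, 10 microg/mL final in Tris/HCl pH8 with KCl, BSA, glycerol and Tween-20, cleaved an Abz/nitrotyrosine-quenched decapeptide. Fluorescence (ex 320, em 430) was read at 0 and 20 min at room temperature. Delta was normalized to 5.8 microM ADEP and DMSO/no-enzyme controls.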
TRPV1 PAM: enhances activation of the human vanilloid receptor TRPV1. TRPV1-expressing cells, Fluo-8 calcium influx, capsaicin EC20 potentiation; host cell line not named in the record; control for the full effect not named in the record. potentiation, % at 8.33 µM. 0.02% of 320,000 active. AID 540277; active means potentiation above 80%; inconclusive means 30% to 80%; inactive means below 30%; further: 0% is about no effect
Target sequence (Q8NER1 whole entry, looked up): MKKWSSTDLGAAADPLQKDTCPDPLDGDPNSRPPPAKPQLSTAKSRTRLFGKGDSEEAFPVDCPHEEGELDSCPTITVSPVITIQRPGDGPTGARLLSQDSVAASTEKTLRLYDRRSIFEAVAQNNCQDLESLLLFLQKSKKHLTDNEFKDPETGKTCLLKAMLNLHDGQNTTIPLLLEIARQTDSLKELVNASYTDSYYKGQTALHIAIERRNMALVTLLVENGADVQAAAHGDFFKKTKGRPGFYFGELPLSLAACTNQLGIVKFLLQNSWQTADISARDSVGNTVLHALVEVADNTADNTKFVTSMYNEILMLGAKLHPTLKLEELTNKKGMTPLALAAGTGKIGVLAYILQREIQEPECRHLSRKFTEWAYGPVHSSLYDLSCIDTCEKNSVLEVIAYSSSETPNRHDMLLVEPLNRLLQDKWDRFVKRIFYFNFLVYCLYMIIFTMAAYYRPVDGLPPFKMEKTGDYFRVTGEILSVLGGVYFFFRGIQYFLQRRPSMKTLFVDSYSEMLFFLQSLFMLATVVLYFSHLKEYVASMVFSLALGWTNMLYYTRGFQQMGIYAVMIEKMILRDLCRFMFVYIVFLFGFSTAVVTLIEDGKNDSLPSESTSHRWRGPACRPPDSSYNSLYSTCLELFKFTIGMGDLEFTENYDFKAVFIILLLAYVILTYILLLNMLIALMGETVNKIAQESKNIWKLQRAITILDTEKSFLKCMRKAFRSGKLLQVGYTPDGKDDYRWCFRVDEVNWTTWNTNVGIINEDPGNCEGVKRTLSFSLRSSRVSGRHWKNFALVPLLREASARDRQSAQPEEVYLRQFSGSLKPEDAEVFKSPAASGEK
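TRPV1-expressing cells were cultured overnight at 35.5C and loaded with Fluo-8 calcium dye for 40 to 90 min at room temperature. After a 10 s baseline, compound was added and calcium influx was read kinetically for 3 min (ex 480/em 520 nm).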
Menin MLL FP FL: menin-MLL binding inhibition, fluorescein peptide; Fluorescence polarization, fluorescein-MLL peptide displacement from menin; FP activity change, % at 61.4 µM; 290,000 tested, under 10 active; AID 1766; inconclusive = falling polarisation curve, or a change in total fluorescence; inactive = total fluorescence flat and polarisation flat or rising; no compound was filed as active; the % refers to the polarisation; negative = inhibition;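 further: % of control where 0% means no effect; inhibitors lower the polarisation; unlabelled MLL peptide was the positive control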
TRPML1 agonist: agonists of human TRPML1 channel. Q9GZU1. TRPML1-expressing cells, Ca2+ dye fluorescence, FDSS; host cell line not named in the record; reference of the full effect not given here. activation, % (no concentration beside the values). 0.12% of 410,000 active; in the data active = activation above about 50%; inconclusive = about 30% to 50%; inactive = below about 30%; further: 0% is about no effect; the text of the record puts the active cut at 80%
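TRPML1-DL cells, Tet-induced overnight (~16 h, 37 degrees C), loaded 45-90 min at room temperature with Ca8 no-wash calcium dye plus quencher. FDSS fluorescence: 10 s baseline, compound pin-transfer, 110 s agonist read, then EC80 54-4 (4uM final) and 110 s antagonist read.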
TRPML1 blocker: blocks the human TRPML1 channel. TRPML1-inducible cells, Ca2+ dye fluorescence, FDSS; hits give low values; inhibition of EC80 agonist-evoked calcium signal. activity change, negative = inhibition, % (no concentration beside the values). Q9GZU1. 0.02% of 390,000 active; in the data active means activity change below about -50%; inconclusive means about -30% to -50%; inactive means above about -30%;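 further: stimulus is agonist 54-4 at its EC80 concentration; on the % scale 0 is the no-effect control and ±100 the full control effect; compound concentration not given in the record; the text of the record puts the active cut at -80%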
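Tet-induced TRPML1-DL cells loaded with Ca8 no-wash calcium dye were read kinetically on FDSS. Compound addition was followed by EC80 agonist 54-4 (4 uM final); inhibition was read over 110 s.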
PINK1 modulator: PINK1 expression modulation; PINK1 immunofluorescence, high-content cytometry, 24 h; AID 624263; Potency, µM (doses to about 76.6 µM), without a hit: at the highest dose activation (PINK1 increase), hits mostly activators; 0.2% of 410,000 active; active = well fitted activation curve with a large enough effect; inconclusive = small, poorly fitted or top-dose-only effect; inactive = flat fitted curve, though single readings scatter; cell line not stated here;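 further: potency means the concentration at half of the fitted maximal effect; % of control where 0% means no effect; nearly all actives have a fitted effect of over 65% in size; a mitochondrial uncoupler was the plate control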
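PINK1 protein level read as immunofluorescence by microplate cytometer in a fixed, stained stable cell line after 24 h exposure to five compound concentrations, with CCCP as control.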
Starred values were filed as active, the others as inactive; ? = inconclusive; . = no result given; [ ] = dose if it differs, or a comment.

SMILES	Sfp PPTase inh	ClpP mod	TRPV1 PAM	Menin MLL FP FL	TRPML1 agonist	TRPML1 blocker	PINK1 modulator
COc1ccc(NC(=O)Cn2c(=O)c3cc(Cl)ccc3n3nncc23)cc1	.	-22%	.	.	-0.2	-8	0.2%
CC(=O)Nc1ccc2c(c1)OCCO2	6%	-5.9%	7	0.7	-0.9	6	1.6%
CC(C)(C)c1[nH]nc2c1C(c1ccsc1)C(C#N)=C(N)O2 (configuration not stated)	12%	-2.0%	0	-1.9	1.0	7	1.6%
COc1cccc(NC(=S)N/N=C2\CC(C)(C)Oc3ccc(O)cc32)c1	26%	?	1	2.3	0.7	-8	1.2%
COc1ccc(NC(=O)c2sc3nc(C)cc(C)c3c2N)cc1	7%	3.3%	?	-4.2	0.7	-8	6.1%
COc1cccc(C(=O)NNC(=O)C(=O)Nc2ccc(C)cc2)c1	14%	0.0%	10	-3.0	1.2	0	-1.0%
CC(C)c1nn2c(=O)cc(COC(=O)c3ccc(NC(=O)C4CCCCC4)cc3)nc2s1	.	-18%	.	.	2.6	-7	1.0%
COc1cc2[nH]c(C(=O)N3CCN(c4ccc(F)cc4)CC3)cc2c(OC)c1OC	8%	-2.7%	2	0.6	1.3	4	6.2%
CSc1ccc(S(=O)(=O)N2CCC(C(=O)NCCc3ccccc3)CC2)cc1	12%	-0.4%	3	-2.1	1.3	-9	1.8%
O=C(CCSc1nnc2ccccn12)Nc1ccc2c(c1)OCO2	7%	.	?	-2.2	0.0	7	4.6%
Nc1ncnc2c1CCC2	6%	-2.5%	4	0.1	-0.2	6	-0.9%
CCOc1ccccc1CN1CCN(Cc2nc3c(s2)CCCC3)CC1CCO (configuration not stated)	5%	-7.6%	8	1.4	0.9	4	-1.2%
Cc1cc(C)n(C(=O)/C(C#N)=N\Nc2ccccc2[N+](=O)[O-])n1	19%	.	-9	2.2	-0.8	18	3.3%
O=C(O)c1ccc2c(c1)C1C=CCC1C(c1ccncc1)N2 (configuration not stated)	?	.	9	?	-0.4	-9	1.3%
CSc1ncnc2c1ncn2CCCNCc1ccco1	.	-2.7%	.	.	0.3	37	-0.7%
Cc1cc(C(=O)OCC(=O)Nc2ncc(C(F)(F)F)cc2Cl)c(C)o1	-17%	1.0%	6	6.6	-1.8	-6	1.2%
CS(=O)(=O)c1ncc(N(Cc2ccco2)Cc2ccco2)c(C(=O)Nc2ccccc2Br)n1	.	-5.0%	.	.	2.5	34	0.5%
Cc1ccc2c(c1)N(C(=O)CCC(=O)NCCCN1CCC(Cc3ccccc3)CC1)CCO2	-6%	-0.1%	11	-2.1	1.2	8	1.8%
Cc1ccc(OC(=O)c2ccc(S(=O)(=O)N(C)C)cc2)c(-n2nc3ccccc3n2)c1	4%	-3.3%	4	1.6	2.0	82	-0.8%[38.3 µM]
CCN(Cc1ccccc1)C(=O)CN1C(=O)NC(CC)(c2ccc(F)cc2)C1=O (configuration not stated)	-4%	.	2	-1.8	2.7	10	0.7%
CC1=C/C(=C\c2ccc(Br)o2)C(=O)O1	3%	-4.1%	5	8.3	-0.4	-13	0.5%
COc1ccc(C(=O)OCC(=O)NCc2ccco2)cc1S(=O)(=O)N1CCN(c2cccc(Cl)c2)CC1	18%	-5.3%	5	-0.1	1.3	2	-0.7%
Cc1cccn2c(=O)c3cc(C#N)c(=O)n(-c4c(C)n(C)n(-c5ccccc5)c4=O)c3nc12	8%	-7.0%	2	-0.3	0.9	-11	-1.3%
CCN(Cc1nc(-c2ccc(OC)cc2)no1)C(=O)c1ccc2c(c1)OCO2	-7%	-0.9%	6	0.6	-0.8	22	3.0%
CCOC(=O)C1CCN(C(=O)CS(=O)(=O)Cc2nc(-c3ccccc3Cl)oc2C)CC1	9%	1.2%	-36	1.2	0.5	1	1.2%
O=C(CSc1nc2cc(S(=O)(=O)N3CCOCC3)ccc2o1)NC1CCCc2ccccc21 (configuration not stated)	10µM*	-0.9%	-17	-1.3	1.9	-3	-0.8%
COc1nc(-c2ccc(Cl)cc2)ccc1-c1noc(-c2cccs2)n1	-4%	14µM*	1	2.0	-0.2	-1	5.5%[38.3 µM]
COc1ccc(C(=O)COC(=O)C(Cc2c[nH]c3ccccc23)NC(=O)c2ccc(C(C)(C)C)cc2)cc1 (configuration not stated)	.	-0.7%	.	.	-0.1	-2	-0.2%
O=C(CSc1nc2ccccc2n1Cc1ccccc1)N/N=C/c1ccco1	?	-2.5%	-1	-0.4	-0.2	-3	0.2%[38.3 µM]
COc1ccc(CN(C(=O)c2cccs2)C(C(=O)NC2CCCCC2)c2ccc3ncccc3c2)cc1 (configuration not stated)	-9%	-0.9%	-13	-1.5	1.1	1	-0.8%
CC(=O)N(C(C)=O)S(=O)(=O)c1ccc(N=NN2CCOCC2)cc1	6%	-1.3%	-13	-1.0	-0.3	45	1.7%
Cc1noc(C)c1COc1ccc(CC(=O)NCCc2ccccn2)cc1	19%	.	12	5.2	-1.0	4	-0.9%
COc1ccc(/C=N/NC(=O)CSCC(=O)Nc2ccccc2)cc1	19%	0.6%	-3	-2.1	1.2	12	-0.8%
COc1ccc(/C=C2\Oc3ccccc3C2=O)cc1	.	4.1%	.	.	-0.2	3	0.3%
CCS(=O)(=O)c1ccc(-c2cccc(NC(=O)COc3ccccc3)c2)nn1	13%	0.7%	3	-0.3	0.6	-4	5.0%
CC1CCC/C(=N\NC(=S)Nc2ccccc2)C1 (configuration not stated)	-13%	-0.4%	-2	2.8	-0.4	-6	2.1%
COc1cccc(C2CC(c3ccc(NS(C)(=O)=O)cc3)=NN2C(=O)c2ccccc2)c1OC (configuration not stated)	6%	.	-23	16	0.0	-10	0.5%
CC(C)(C)OC(=O)N1CCC(NC(=O)c2[nH]cnc2C(=O)Nc2ccccc2)CC1	.	-4.1%	1	.	-0.7	-10	4.2%
CC(=O)N1CCCC1c1nc2ccccc2n1Cc1ccccc1C (configuration not stated)	.	-2.1%	.	.	0.5	17	1.2%
COCCn1c(=NC(=O)c2cc(Cl)sc2Cl)sc2cc(S(N)(=O)=O)ccc21	11%	?	3	7.5	0.1	-15	9.1%
O=C(NCc1ccc(F)cc1)c1cnc(-c2ccccn2)nc1C(F)(F)F	14%	2.1%	-1	-1.4	1.4	-8	-1.3%
COc1cccc(C(=O)N2CCC2(C)C(=O)NC(C)C)c1 (configuration not stated)	.	-0.1%	.	.	0.6	.	1.9%
O=C(NNc1cc(Cl)cc(Cl)c1)c1c(F)cccc1Cl	5%	-0.6%	19	2.6	-0.6	2	0.3%
Cc1cccc(-c2nc3ccccc3c(=O)n2NC(=O)Cc2ccc(Cl)cc2)c1	11%	0.5%	-6	0.6	1.3	-19	1.2%
CCSC1OC(C(COC(C)=O)OC(C)=O)C(OC(C)=O)C1NC(C)=S (configuration not stated)	.	-0.5%	.	.	0.3	-12	0.8%
CCOC(=O)c1ccccc1NC(=O)CN1C(=O)c2ccccc2S1(=O)=O	2%	18%	-6	4.8	0.3	2	.
CC(C)NS(=O)(=O)c1ccc(OCC(=O)NCc2ccco2)cc1	23%	.	5	2.2	2.7	2	-0.9%
O=[N+]([O-])c1cccc(OCCCN2CCC(Cc3ccccc3)CC2)c1	.	.	.	.	0.0	4	12%
CCOc1ccccc1NC(=O)CSc1nnc(CNC(=O)c2ccccc2F)o1	9%	2.3%	-7	.	-0.7	-9	2.6%
CS(=O)(=O)NNC(=O)CN1C(=O)C2C3C=CC(C3)C2C1=O (configuration not stated)	-2%	.	1	-2.0	-0.9	33	4.4%
COC(=O)c1cc2ccccn2c2c(C(=O)OC)c(C(=O)OC)cc1-2	8%	3.0%	5	-0.3	-0.8	-11	4.8%
CCCCOc1ccc(OCCNC(=O)C2CCCN2C(=O)Nc2ccccc2)cc1 (configuration not stated)	-3%	.	-4	-2.6	2.7	-13	-1.9%
Cc1cc(Cl)ccc1NC(=O)CSc1nnc(Cc2cccs2)n1Cc1ccco1	-86%	-1.3%	6	5.9	0.4	6	-1.9%
O=C(N/N=C/C=C/c1ccccc1)C1CC1(c1ccccc1)c1ccccc1 (configuration not stated)	1%	-1.6%	9	1.0	4.5	14	4.8%[38.3 µM]
CCCC1=C(C(=O)OCC)C(c2ccc(N(C)C)cc2)n2ncnc2N1 (configuration not stated)	8%	0.5%	6	4.7	-0.1	24	9.4%[38.3 µM]
CCN(CC)C1=NS(=O)(=O)c2cc([N+](=O)[O-])ccc21	11%	.	-7	0.2	-0.2	15	8.5%
Cc1c(C(=O)N/N=C/c2cccs2)nnn1-c1nonc1N	8%	0.0%	-7	0.3	0.1	31	11%
CCOC(=O)c1ccc2nc(C)c(CCC(C)=O)c(Cl)c2c1	0%	0.3%	-11	10	0.3	24	0.7%
O=C(O)c1cc(S(=O)(=O)N(Cc2ccccc2)c2ccccc2Cl)ccc1Cl	14%	-0.2%	16	-0.3	0.7	-4	0.2%
CCn1cc(C(=O)Nc2ccc(C)cc2C)c(=O)c2ccc(C)nc21	10%	.	1	3.3	.	.	.

Single records, from the list above. Order of values: Sfp PPTase inh | ClpP mod | TRPV1 PAM | Menin MLL FP FL | TRPML1 agonist | TRPML1 blocker | PINK1 modulator
Shown for `CC(C)NS(=O)(=O)c1ccc(OCC(=O)NCc2ccco2)cc1` → 23% | . | 5 | 2.2 | 2.7 | 2 | -0.9%
Shown for `COC(=O)c1cc2ccccn2c2c(C(=O)OC)c(C(=O)OC)cc1-2` → 8% | 3.0% | 5 | -0.3 | -0.8 | -11 | 4.8%
Shown for `CCCCOc1ccc(OCCNC(=O)C2CCCN2C(=O)Nc2ccccc2)cc1` (configuration not stated) → -3% | . | -4 | -2.6 | 2.7 | -13 | -1.9%

(next part)
SMILES	Sfp PPTase inh	ClpP mod	TRPV1 PAM	Menin MLL FP FL	TRPML1 agonist	TRPML1 blocker	PINK1 modulator
CSCCC(NC(=O)COc1ccccc1)C(=O)OCCOc1ccc(Br)cc1 (configuration not stated)	.	.	3	.	5.5	42	-1.4%
CCOc1ccc(S(=O)(=O)N2CCCC(C(=O)NCc3ccccc3)C2)cc1 (configuration not stated)	16%	1.0%	2	-0.2	0.0	-11	3.5%
NS(=O)(=O)c1cc(C(=O)OCC(=O)Nc2ccc3c(c2)OCO3)ccc1Cl	.	-2.7%	.	.	-0.2	-1	1.1%
COc1cccc(NC(=O)c2cc(-c3ccc(OC)cc3OC)nc3ccccc23)c1	.	-29%	.	.	0.9	16	-0.9%
